HNF4A DNA FP – change in binding of human HNF4 alpha to DNA | HNF4a-FITC DNA binding, fluorescence polarization, 1 h | 360,000 compounds, 0.3% hits | AID 1224865 | P41235 | activity change, % at 10 µM; in the data active = activity change above about 30%, passing the limit was not always enough;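 also: controls were the assay level and a saturating level of protein; the project sought stronger binding though the title names inhibitors; some compounds called inactive have numbers as strong as hits; positive values seem to mean higher polarization but the record does not say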
Target sequence (P41235 whole entry, looked up): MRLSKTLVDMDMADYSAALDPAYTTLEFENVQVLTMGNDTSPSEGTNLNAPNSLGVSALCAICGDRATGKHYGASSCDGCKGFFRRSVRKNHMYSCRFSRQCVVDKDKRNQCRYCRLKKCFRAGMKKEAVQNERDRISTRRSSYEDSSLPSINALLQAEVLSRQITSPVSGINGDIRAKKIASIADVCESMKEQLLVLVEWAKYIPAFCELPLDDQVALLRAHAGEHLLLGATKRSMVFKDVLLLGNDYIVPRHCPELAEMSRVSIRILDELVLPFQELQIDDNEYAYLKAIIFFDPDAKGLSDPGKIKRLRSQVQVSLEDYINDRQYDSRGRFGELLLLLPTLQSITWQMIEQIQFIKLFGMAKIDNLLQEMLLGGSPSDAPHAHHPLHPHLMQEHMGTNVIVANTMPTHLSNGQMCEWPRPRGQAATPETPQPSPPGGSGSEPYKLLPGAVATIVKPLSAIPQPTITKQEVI
MLL AF4-AF9 inh – MLL-AF4/AF9 protein interaction inhibition; P42568; AlphaScreen, biotin-AF4 peptide binding to FLAG-AF9; inhibition, % at 10 µM; 350,000 compounds, 0.47% hits; AID 651704;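 active = every replicate reaching a set inhibition limit, whatever the replicate mean, cut at about 25% in these data; inconclusive = mean inhibition reaches that limit but some replicates miss it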;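 also: 0% = plate neutral control median and 100% = total signal loss; the record names both 10 and 1 µM as test concentration; the first replicate is given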
Target sequence (P42568 whole entry, looked up): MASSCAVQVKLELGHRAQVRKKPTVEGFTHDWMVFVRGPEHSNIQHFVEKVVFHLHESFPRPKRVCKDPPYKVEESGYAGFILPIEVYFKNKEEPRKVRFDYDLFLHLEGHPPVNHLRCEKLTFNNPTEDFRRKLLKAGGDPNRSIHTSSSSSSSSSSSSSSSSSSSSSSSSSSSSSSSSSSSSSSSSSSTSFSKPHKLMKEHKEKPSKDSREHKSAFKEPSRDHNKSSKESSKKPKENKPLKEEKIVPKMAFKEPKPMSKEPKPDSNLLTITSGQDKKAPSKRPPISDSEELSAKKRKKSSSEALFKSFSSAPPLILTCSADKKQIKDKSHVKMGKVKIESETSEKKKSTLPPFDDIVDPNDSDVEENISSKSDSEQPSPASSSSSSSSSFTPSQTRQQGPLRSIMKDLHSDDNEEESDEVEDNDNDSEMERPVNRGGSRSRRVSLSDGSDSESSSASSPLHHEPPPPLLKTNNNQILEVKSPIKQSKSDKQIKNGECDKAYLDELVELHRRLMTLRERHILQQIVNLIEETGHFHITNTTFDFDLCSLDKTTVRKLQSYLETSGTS
Vif TR-FRET – inhibitors of Vif binding to APOBEC3G peptide, primary screen, biochemical, TR-FRET, GST-Vif 1-94, biotin-A3G peptide, dose response retest (AID 1117319); TR-FRET GST-Vif / biotin-A3G peptide binding; higher % means a stronger effect; test concentration not given here; strong numbers were not always called active; inhibition, %; hits with a dose series show IC50 in µM; 260,000 compounds, 0.57% hits;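 active = above the screen mean plus three standard deviations and confirmed in dose response; inconclusive = results disagree or hit not tested in dose response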;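 also: Vif residues 1-94 fused to GST binding biotinylated APOBEC3G peptide 110-148; 0% = full assay without inhibitor and 100% = GST in place of GST-Vif; retest series ran down from 100 µM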
ALR H2O2 inh – blocks human ALR sulfhydryl oxidase activity; inhibition, % (concentration not given with the values); purified ALR, DTT oxidation, H2O2 HRP-luminol luminescence; P55789; 290,000 compounds, 3.8% hits;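 active = mean and each replicate at 75% or more; inconclusive = only one of the two met; inactive = neither met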;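 also: stock transfer was 7.5 nL into about 7.5 µL; 0% = neutral wells and 100% = wells with inactivated enzyme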
FGF22 binding – binders of recombinant human FGF22 by thermal shift. Q9HCT0. SYPRO orange fluorescence; percent of sucrose octasulfate shift, DMSO zero. calls only at 9.99 µM. 340,000 compounds, 1.5% hits. AID 651658;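 active = melting point raised past a set limit in the mean and every replicate; inconclusive = no clear call; three in four hits are not shown here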
Ecoli rRNA inh – selective bacterial rRNA inhibition in E. coli | E. coli WT GFP vs humanized-ribosome RFP mutants, fluorescence, 24 h; hits give low values; DMSO median 0, no signal -100 | GFP signal change (wild-type ribosome), % (concentration not given with the values) | 350,000 compounds, 1.6% hits | AID 720706;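 active = significant combined selectivity score with lowered wild-type GFP, culture density cut under 30%, mutant RFP and density less affected; inactive = any of these conditions unmet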; also: one replicate is shown; some compounds called inactive have numbers as strong as hits
E coli growth – blocks Escherichia coli growth; 330,000 compounds, 0.21% hits; AID 1053175; OD600 absorbance (test concentration not listed); OD600, 23 h; hits give low values;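 active = OD600 absorbance below the run mean of sample wells minus 3.6 SD, in any replicate, cut at about 0.56 in these data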;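 also: stock transfer was 300 nL into about 60 µL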
Ecoli rRNA inh OD600 – further read-out of Ecoli rRNA inh, marked with its call; OD600 change, %; measured here: OD600 growth;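 optical density of the mix in the first replicate; 0 = DMSO median and -100 = no signal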
Ecoli rRNA inh RFP – recorded beside Ecoli rRNA inh, whose call it bears; RFP signal change, %; measured here: RFP humanized mutant strains;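 first replicate; 0 = DMSO median and -100 = no signal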
* hit, by the source's call; i = inactive; ? = inconclusive; . = not tested or not shown; & = joins results of further samples. A portion of the library; count on the stated rates, not on these rows.

SMILES | HNF4A DNA FP | MLL AF4-AF9 inh | Vif TR-FRET | ALR H2O2 inh | FGF22 binding | Ecoli rRNA inh | Ecoli rRNA inh OD600 | Ecoli rRNA inh RFP | E coli growth
CO[C@H]1CN(C)C(=O)c2cc(NC(C)=O)ccc2OC[C@@H](C)N(C(=O)C2CCC2)C[C@H]1C | . | 5.5 | . | . | i | 1 | 2 | -1.8 | .
Oc1cccc(/C=N/NC(=S)Nc2cccnc2)c1O | -2.2 | . | ? | 90* | . | . | . | . | .
O=C(NCc1cccnc1)c1cc(C2CCCN(S(=O)(=O)c3cccc4cccnc34)C2)on1 (stereo not drawn) | 0.6 | -0.2 | . | . | i | 5 | 6 | 0.5 | .
Cc1ccc(C2=CSC3=NCCN23)cc1 | -0.5 | -1.8 | . | 42 | i | 22 | 26 | 0.4 | 0.7
Cc1nc(NC(=O)/C=C/c2ccccc2)sc1C(=O)N1CCCCC1 | 3.2 | 3.5 | 6% | 3 | i | -17 | -17 | -1.2 | 0.66
COc1ccc2c3c(n(C)c2c1)[C@@H](CO)N(S(C)(=O)=O)CC31CN(C(=O)C2CC2)C1 | . | 0.1 | . | . | i | -2 | 7 | -1.7 | .
Cn1c(CCCNC(=O)c2ccccc2)nc2ccccc21 | -6.2 | . | 1% | -5 | . | . | . | . | 0.69
COc1ccc(-c2cc(CCCC(=O)NCCc3cc(OC)ccc3OC)no2)cc1 | 1.4 | . | 4% | -2 | . | . | . | . | 0.68
CCOc1ccc(Cl)cc1S(=O)(=O)n1cnc2ccccc21 | -0.1 | . | 21% | 4 | . | . | . | . | 0.72
O=C(COc1ccccc1-c1ccccc1)NCc1ccco1 | -2.3 | 5.4 | -9% | 1 | i | -34 | -44 | -9.5 | 0.69
O=C1C[C@@H](c2ccccc2)Oc2cc(O)cc(O)c21 | 3.4 | 0.5 | . | 7 | i | -9 | -18 | -3.2 | .
C[C@@H]1CN([C@@H](C)CO)C(=O)c2cc(NS(C)(=O)=O)ccc2O[C@@H](C)CCCCO[C@H]1CN(C)C(=O)c1ccncc1 | . | -4.5 | . | . | i | -1 | 6 | -1.7 | .
COc1ccc(C(c2c(NC(=O)c3ccccc3)sc(C)c2C)N2CCN(CCO)CC2)cc1 (stereo not drawn) | -1.9 | -0.4 | . | . | i | . | . | . | 0.7
CCOc1ccc(C(=O)NC2=NCCS2)cc1 | . | -0.1 | 2% | 1 | i | 4 | 9 | -1.9 | 0.66
NC(=O)[C@@H]1CCCN1C(=O)c1cc(COc2ccc(F)cc2F)on1 | -0.2 | -10 | 23% | -20 | i | 1 | 0 | -1.3 | 0.66
O=S(=O)(c1ccc(Cl)cc1)n1c(Cc2ccccc2)nc2ccccc21 | 2.4 | -0.1 | -10% | -2 | i | 0 | -1 | -5.8 | 0.62
O=C1C2CC=C(Cl)CC2C(=O)N1CCC[n+]1cccc2ccccc21 (stereo not drawn) | 0.7 | . | 9% | . | . | . | . | . | 0.65
Cc1ccc(Nc2cc(C)nc(NCc3ccccc3)n2)cc1 | 2.5 | 10 | . | 2 | i | -60 | -84 | -24 | 0.58
CC1CC(C)CN(C(=O)COC(=O)/C=C/c2cccc([N+](=O)[O-])c2)C1 (stereo not drawn) | 0.0 | 1.1 | 2% | . | i | 3 | 5 | -2.4 | 0.61
COc1ccc(-c2nnc(SCC(=O)N3CCC(Cc4ccccc4)CC3)o2)cc1OC | -1.0 | . | -2% | -15 | . | . | . | . | 0.7
NS(=O)(=O)c1ccc(NC(=S)NC(=O)c2cccs2)cc1 | -1.1 | 3.0 | 7% | 11 | i | 4 | 0 | 1.9 | .
COc1cccc(-c2cnc3c(c2)C(=O)N([C@H](C)CO)C[C@@H](C)[C@@H](CN(C)Cc2ccc(C(=O)O)cc2)O3)c1 | . | -6.1 | . | . | i | 6 | 4 | -1.0 | .
O=C(Nc1cccc(Cl)c1)Nc1ccc2c(c1)OCO2 | 4.6 | . | 16% | -6 | . | . | . | . | 0.53*
Cc1ccc(/C=N/NC(=O)Cn2nc(C)c(Br)c2C)o1 | 1.3 | . | 31% | -2 | . | 0 | 3 | 0.1 | .
C[C@@H]1CN([C@@H](C)CO)C(=O)c2cc(C#CC(C)(C)O)cnc2O[C@H]1CN(C)C(=O)c1ccccc1F | . | -3.0 | . | . | i | 6 | 4 | -3.8 | .
C=CCNS(=O)(=O)NC(=O)C1=C(N2CCCC2)COC1=O | 4.1 | -25 | . | 0 | i | 2 | 0 | 1.8 | 0.61
NC(c1csc(NC(=O)Nc2ccccc2Oc2ccccc2)n1)c1ccccc1Cl (stereo not drawn) | 4.8 | 3.2 | . | . | i | 6 | 0 | 25 | .
Cc1sc2nc(SCC(=O)N(C)c3ccccc3)n(C)c(=O)c2c1C | 1.3 | 6.0 | . | -5 | . | -2 | 1 | 0.2 | 0.66
CC(=O)N(C)c1ccc(NC(=O)c2ccc([N+](=O)[O-])cc2Cl)cc1 | -0.6 | . | 9% | -42 | . | . | . | . | 0.68
CC(=O)Nc1cccc(C(=O)OC(C)C(=O)NC2CCCc3ccccc32)c1 (stereo not drawn) | 1.4 | -0.6 | . | 1 | i | 0 | 1 | -2.3 | 0.69
CCOC(=O)N1CCN(CC(=O)Nc2ccc(F)cc2F)CC1 | -3.3 | 0.5 | -3% | -1 | i | 15 | 11 | -1.3 | 0.64
C=CCNC(=S)NNC(=O)COc1ccc(Br)cc1 | -1.6 | -1.1 | -6% | 1 | i | -8 | -6 | -0.3 | 0.67
CCN(CCNC(=O)C1CCN(Cc2nc(-c3ccc(Cl)cc3)oc2C)CC1)c1ccccc1 | 63* | . | 5%&-6% | 98* | . | . | . | . | 0.61
CN(C)C(=O)C[C@@H]1CC[C@@H]2[C@H](COc3ccc(NC(=O)c4ccc(F)c(F)c4)cc3C(=O)N2C)O1 | . | 0.1 | . | . | i | -2 | 1 | 0.5 | .
CNC[C@@H]1Oc2ccc(NC(=O)NC(C)C)cc2C(=O)N([C@@H](C)CO)C[C@H]1C | . | -1.0 | . | . | i | 3 | 3 | -2.0 | .
CCc1csc(N2[C@@H](C#N)[C@@H](c3ccccc3-c3ccc(F)cc3)[C@@H]2CO)n1 | . | 2.3 | . | . | i | -16 | -20 | -4.5 | .
OCCN1CCSC1=S | -1.6 | -0.5 | -12% | . | i | 1 | 13 | 1.0 | 0.68
CO[C@H]1CN(C)C(=O)c2cc(NC(=O)C3CCC3)ccc2OC[C@H](C)N(Cc2ccncc2)C[C@H]1C | . | -4.6 | . | . | i | -2 | -5 | -2.1 | .
COC(=O)CC1=C(C(=O)OC)C(c2ccc3c(c2Cl)OCO3)C(C#N)=C(N)O1 (stereo not drawn) | -2.2 | . | 1% | 12 | . | . | . | . | 0.7
CC(CN1CCCC1)OC(=O)c1ccc(F)cc1 (stereo not drawn) | -0.1 | -20 | . | -4 | i | 23 | 16 | 0.9 | 0.67
Cc1ccc(/C=N/n2c(-c3ccccc3)n[nH]c2=S)cc1 | 3.5 | -6.5 | . | -6 | i | 9 | 7 | 0.1 | .
CCNC(=O)[C@@H]1[C@@H](CO)[C@@H]2Cn3c(ccc(-c4ccncc4)c3=O)[C@H]1N2Cc1ccccc1 | . | 0.5 | . | . | i | 0 | 1 | -2.7 | .
COc1ccc(NC(=O)CN(C)CC(=O)Nc2ccccc2SC)cc1Cl | 3.3 | 8.6 | 21% | -13 | i | -13 | -10 | 1.3 | 0.71
C[C@H](CO)N1C[C@H](C)[C@H](CN(C)Cc2ccncc2)Oc2c(NC(=O)Nc3ccc(C(F)(F)F)cc3)cccc2C1=O | . | 12 | . | . | i | -5 | -19 | -2.3 | .
NS(=O)(=O)c1ccccc1 | 0.8 | -7.4 | -7% | -3 | i | 8 | 4 | -0.7 | 0.68
CCC1(CC)C(=O)C2=C3C1[C@H](C(=O)OC)C=C(C(=O)OC)C[C@H]3n1c(=O)n(-c3ccccc3)c(=O)n1[C@H]2C (stereo partly drawn) | -1.4 | 9.9 | . | -13 | i | -4 | 1 | -1.2 | .
CCCC#Cc1ccc([C@@H]2[C@H](C#N)N(C(=O)C3CC3)[C@H]2CO)cc1 | . | -31 | . | . | i | 3 | 6 | 1.9 | .
CC1(C)CC(=O)C(CC(=O)NC(=O)NCc2ccccc2)=C(O)C1 | -4.3 | . | 2% | . | . | . | . | . | 0.7

Four entries from above, with values ahead of the structure.
HNF4A DNA FP | MLL AF4-AF9 inh | Vif TR-FRET | ALR H2O2 inh | FGF22 binding | Ecoli rRNA inh | Ecoli rRNA inh OD600 | Ecoli rRNA inh RFP | E coli growth | Structure
0.8 | -7.4 | -7% | -3 | i | 8 | 4 | -0.7 | 0.68 | NS(=O)(=O)c1ccccc1
-1.4 | 9.9 | . | -13 | i | -4 | 1 | -1.2 | . | CCC1(CC)C(=O)C2=C3C1[C@H](C(=O)OC)C=C(C(=O)OC)C[C@H]3n1c(=O)n(-c3ccccc3)c(=O)n1[C@H]2C (stereo partly drawn)
. | -31 | . | . | i | 3 | 6 | 1.9 | . | CCCC#Cc1ccc([C@@H]2[C@H](C#N)N(C(=O)C3CC3)[C@H]2CO)cc1
-4.3 | . | 2% | . | . | . | . | . | 0.7 | CC1(C)CC(=O)C(CC(=O)NC(=O)NCc2ccccc2)=C(O)C1

Following part.
SMILES | HNF4A DNA FP | MLL AF4-AF9 inh | Vif TR-FRET | ALR H2O2 inh | FGF22 binding | Ecoli rRNA inh | Ecoli rRNA inh OD600 | Ecoli rRNA inh RFP | E coli growth
COC(=O)COc1c(Cl)cc(Cl)c2ccc(C)nc12 | 1.6 | -1.0 | -3% | 13 | i | 14 | 3 | -2.1 | 0.69
COc1cc2c(c(OC)c1OC)C(c1ccc(C)cc1)CC(=O)O2 (stereo not drawn) | -1.5 | 0.1 | -7% | . | i | -28 | -29 | -2.2 | 0.68
O=C(C[n+]1cc(-c2ccccc2)n2c1CCCCC2)c1ccc(Br)cc1 | 3.6 | 4.3 | . | 3 | i | -55 | -80 | -31 | 0.68
O=C1CC(N2CCN(c3ccccc3)CC2)C(=O)N1Cc1ccc(Cl)cc1 (stereo not drawn) | -2.6 | -9.2 | -6% | 30 | i | -19 | -35 | 9.6 | 0.66
CC(C)(C)N1C(=O)c2ccc(C(=O)NCc3ccco3)cc2C1=O | 0.3 | . | 4% | 6 | . | . | . | . | 0.66
CCOC(=O)c1ccc(NC(=O)c2cc(F)c(F)cc2Cl)cc1 | 0.5 | 1.1 | 3% | 9 | i | -4 | -3 | -1.8 | 0.67
COc1ccccc1NC(=O)CSc1nnc(-c2ccoc2C)o1 | 0.6 | 0.5 | -3% | . | i | 2 | -15 | 0.2 | 0.71
CCCOc1ccc(CN(C)c2ncnc(N)n2)cc1 | 0.7 | -0.3 | ? | -3 | i | -2 | 4 | -0.5 | 0.65
O=C(C[C@@H]1CC[C@H](NC(=O)C2CC2)[C@H](CO)O1)NCc1ccccc1Cl | . | 1.3 | . | . | i | 1 | 1 | -1.2 | .
CC(=O)c1ccc(NC(=O)C(C)OC(=O)C2CC(=O)N(c3ccc4c(c3)OCCO4)C2)cc1 (stereo not drawn) | 1.0 | -1.3 | . | -5 | i | 7 | 8 | -1.7 | 0.72
Cc1ccc(S(=O)(=O)Nc2cc(C)c(O)c(S(=O)(=O)c3ccc(C)cc3)c2)cc1 | -3.1 | . | -2% | 21 | . | -26 | -40 | -1.7 | 0.65
O=C(NCc1ccc(OC(F)(F)F)cc1)C12CN(Cc3ccccc3)CC1C(c1cccc([N+](=O)[O-])c1)=NO2 (stereo not drawn) | 4.1 | 7.1 | 6% | -12 | i | 14 | 15 | -4.1 | 0.73
COc1cc(OC)cc(-c2cc3ccccc3c(=O)o2)c1 | -0.5 | 1.8 | . | 0 | i | 5 | 14 | 3.0 | 0.71
